HNF4A DNA FP: change in binding of human HNF4A to DNA, primary screen, biochemical, fluorescence polarization, FITC-DNA; 1 h; activity change, % at 10 µM; 360,000 tested, 0.3% active; AID 1224865, 2016; in the data active means activity change above about 30%, passing the limit was not always enough;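 further: controls were the assay level and a saturating level of protein; the project sought stronger binding though the title names inhibitors; some compounds called inactive have numbers as strong as hits; positive values seem to mean higher polarization but the record does not say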
Vif TR-FRET: inhibitors of Vif binding to APOBEC3G peptide, primary screen, biochemical, TR-FRET, GST-Vif 1-94, biotin-A3G peptide, dose response retest (AID 1117319). Virion infectivity factor (Human immunodeficiency virus type 1 group M subtype B (isolate …. TR-FRET GST-Vif / biotin-A3G peptide binding; higher % means a stronger effect; test concentration not given here; strong numbers were not always called active. inhibition, %; hits with a dose series show IC50 in µM. 260,000 tested, 0.57% active;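 active means above the screen mean plus three standard deviations and confirmed in dose response; inconclusive means results disagree or hit not tested in dose response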;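 further: Vif residues 1-94 fused to GST binding biotinylated APOBEC3G peptide 110-148; 0% = full assay without inhibitor and 100% = GST in place of GST-Vif; retest series ran down from 100 µM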
E coli growth: E. coli growth inhibition, primary screen, OD600; Escherichia coli growth, 23 h; active compounds read low; OD600 absorbance (no concentration beside the values); 330,000 tested, 0.21% active; AID 1053175, 2014;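 active means OD600 absorbance below the run mean of sample wells minus 3.6 SD, in any replicate, cut at about 0.56 in these data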;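 further: stock transfer was 300 nL into about 60 µL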
UCH37 inh: inhibitors of human UCH37 deubiquitinase, primary screen, biochemical, Ub-AMC cleavage, fluorescence; Ubiquitin carboxyl-terminal hydrolase isozyme L5 (Homo sapiens), Q9Y5K5; purified proteasome/UCH37; inhibition, % (concentration not given with the values); 330,000 tested, 0.33% active;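 active means mean of two replicates above 20%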;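 further: 0% = compound-free wells with enzyme and 100% = wells lacking proteasome; stock transfer was 100 nL into about 20 µL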
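Schedule: 30 min plus 25 min, room temperature / Material: human UCH37 within purified proteasomes / Technique: AMC fluorescence intensity at 355/460 nm / Buffer or medium: pH 7.4 Tris-HCl (50 mM) with ovalbumin, ATP-MgCl2, DTT / Controls: wells without proteasome as full block, compound-free enzyme plus substrate as uninhibited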
LANA-H2B inh: blockers of LANA interaction with H2A/H2B – biochemical, FP readout, HTS, primary screen; cell-free LANA-H2A/H2B peptide, fluorescence polarization; Protein LANA1 (Human herpesvirus 8 type P (isolate GK18)), Q9QR71; 320,000 tested, 0.6% active; inhibition, % (no concentration beside the values); in the data active means inhibition mostly above about 10%, no sharp cut-off; inactive means mostly below about 6.7%;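 further: stock transfer was 7.5 nL into about 10 µL; 0% = median of vehicle wells and 100% = median of positive control wells; one replicate is shown; the record names a cut of 25% in any replicate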
Target sequence (Q9QR71 whole entry, looked up): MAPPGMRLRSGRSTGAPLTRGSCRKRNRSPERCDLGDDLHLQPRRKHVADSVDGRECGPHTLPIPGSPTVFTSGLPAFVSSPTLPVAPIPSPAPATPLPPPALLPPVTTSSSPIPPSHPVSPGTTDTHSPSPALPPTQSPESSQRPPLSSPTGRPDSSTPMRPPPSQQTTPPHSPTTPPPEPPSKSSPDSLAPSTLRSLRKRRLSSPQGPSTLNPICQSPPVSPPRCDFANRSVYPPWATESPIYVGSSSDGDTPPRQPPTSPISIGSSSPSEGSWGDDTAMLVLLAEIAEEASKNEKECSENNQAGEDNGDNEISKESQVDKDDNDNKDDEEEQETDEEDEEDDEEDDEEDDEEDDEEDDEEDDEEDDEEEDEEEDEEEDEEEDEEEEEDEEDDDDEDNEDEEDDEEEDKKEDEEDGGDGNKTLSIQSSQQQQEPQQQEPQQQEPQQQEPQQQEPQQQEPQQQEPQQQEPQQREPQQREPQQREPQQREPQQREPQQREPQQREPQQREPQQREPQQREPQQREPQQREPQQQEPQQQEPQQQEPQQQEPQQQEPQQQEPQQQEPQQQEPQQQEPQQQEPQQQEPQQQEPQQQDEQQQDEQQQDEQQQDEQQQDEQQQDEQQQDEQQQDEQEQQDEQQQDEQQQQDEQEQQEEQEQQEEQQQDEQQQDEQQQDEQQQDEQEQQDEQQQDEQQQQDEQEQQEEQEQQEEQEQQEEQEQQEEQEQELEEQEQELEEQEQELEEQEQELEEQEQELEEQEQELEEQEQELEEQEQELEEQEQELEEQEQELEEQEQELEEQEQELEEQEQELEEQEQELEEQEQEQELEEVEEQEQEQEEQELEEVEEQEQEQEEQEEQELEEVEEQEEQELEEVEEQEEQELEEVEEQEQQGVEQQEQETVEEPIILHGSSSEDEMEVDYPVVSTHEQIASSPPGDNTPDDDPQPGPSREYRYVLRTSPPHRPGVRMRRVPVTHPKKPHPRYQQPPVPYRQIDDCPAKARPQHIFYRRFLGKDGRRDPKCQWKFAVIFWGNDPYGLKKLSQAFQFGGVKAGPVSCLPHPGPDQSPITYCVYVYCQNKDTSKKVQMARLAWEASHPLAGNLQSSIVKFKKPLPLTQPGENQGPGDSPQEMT
Beta2AR agonist: beta2AR agonists driving receptor internalization, primary screen, cell-based, FAP fluorogen, flow cytometry; Beta-2 adrenergic receptor (Homo sapiens), P07550; response, % (no concentration beside the values); 340,000 tested, 0.43% active; Am2.2-beta2AR cells; reference of the scale not given here; AID 504454, 2011;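 active means response above a set limit, near 3 SD of response in nonfluorescent compounds, cut at about 42% in these data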;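 further: stock transfer was 100 nL into about 11 µL; a reference agonist was the positive control; negative values mostly stem from fluorescent compounds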
A1 inh: caspase 3/7 activation in MEF A1-2A-BIM cells, primary screen, A1 inhibitor project, cell-based, luminescence, HTS. Caspase-Glo 3/7 luminescence, 3 h; percent of clofoctol response, vehicle zero. caspase activation, % (test concentration not listed). 330,000 tested, 0.066% active. AID 2462, 2010;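 active means over half of replicate activation scores above 10%, or exactly half above 10 with the replicate mean above 10; inconclusive means replicate mean below 10 yet half the replicates above 10; inactive means over half of replicates below 10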;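 further: wells of about 30 µL received 50 nL stock; many hits fall short of the cut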
* hit, by the source's call; i = inactive; ? = inconclusive; . = no result given. No enrichment for hits. About 2.1% of those tested had a hit in this group.

SMILES	HNF4A DNA FP	Vif TR-FRET	E coli growth	UCH37 inh	LANA-H2B inh	Beta2AR agonist	A1 inh
CCCCCC1CC(CC#CCN2CCOCC2)C(=O)O1 (stereo unspecified)	4.2	19%	0.66	3.0	-1.3	8	1.2
CCc1ccc(S(=O)(=O)N2CCN(C(=O)c3cccnc3)CC2)cc1	-0.7	.	0.67	0.5	-2.8	-6	0.1
CCOC(=O)c1[nH]nc(C(=O)c2ccc(Br)cc2)c1O	-1.2	2%	0.68	2.0	-0.7	5	-0.3
Cc1cccc(N2CCN(CCCNC(=O)C3CCCN(c4ncnc5c4nc4n5CCCCC4)C3)CC2C)c1 (stereo unspecified)	3.6	.	0.65	0.2	1.8	9	0.1
CCc1nc(SCC(=O)Nc2ccccc2)c2c(=O)n(C)c(=O)n(C)c2n1	2.5	-3%	0.76	2.6	-5.6	4	0.3
O=C(c1sc2ccccc2c1Cl)N1CCN(CCc2ccccn2)CC1	-2.0	.	0.7	6.3	1.9	-10	-0.2
CCOc1ccccc1C(=O)NC1CCN(Cc2ccccc2)CC1	4.2	.	0.64	2.1	4.8	0	0.4
COc1ccc(C(CC(=O)Nc2cc(OC)cc(OC)c2)n2cccc2)cc1 (stereo unspecified)	2.6	.	0.65	-0.2	6.7	-2	0.4
CCN1C[C@@H]2[C@@H]3C(=O)N(Cc4ccccc4)C(=O)[C@@H]3[C@](Cc3ccccc3)(C1=O)N2C(=O)c1ccc(C)cc1	0.9	.	.	6.3	.	-8	.
C/C(=N\N1CCN(c2ccccc2)CC1)c1cccs1	1.3	1%	.	.	-3.7	-7	0.4
CN(Cc1ccccc1)C(=O)c1ccc(NC(=O)Cc2ccc(NC(=O)C3CCCN(C(=O)C4CCCC4)C3)cc2)cc1 (stereo unspecified)	-3.7	-2%	0.68	-0.5	.	-3	.
COc1ccccc1CNS(=O)(=O)c1cc2c3c(c1)CCN3C(=O)CC2	3.3	11%	0.61	-0.8	-2.2	0	1.0
CCCCOc1ccc(C(=O)NCC(=O)NCC(c2cccs2)N2CCOCC2)cc1 (stereo unspecified)	-1.6	-7%	0.7	1.9	2.7	-2	2.5
CCc1nnc(NC(=O)CCC(=O)NC2CC2)s1	0.7	.	0.7	0.6	-0.1	2	-2.2
CCC(C)[C@H](NC(=O)N1CC(=O)Nc2ccccc21)C(=O)N[C@H](C(=O)O)c1ccccc1 (stereo partly specified)	-2.3	.	0.7	1.3	-2.1	-6	-3.0
COc1ccccc1C(=O)Nc1nnc(-c2ccc(F)cc2)s1	4.7	-23%	0.72	1.7	2.0	-2	-2.2
COc1ccc(C([O-])=Nc2ccc[n+](-c3nc4ccccc4nc3NS(=O)(=O)c3ccccc3)c2)cc1	.	-2%	.	.	-5.4	.	-0.8
O=C(C1CCN(Cc2ccccc2)CC1)N1CCN(C/C=C/c2ccccc2)CC1	1.2	-1%	0.69	1.4	1.7	8	-0.1
COc1ccc(CN(C(=O)c2snc(C(N)=O)c2N)C(C)C(=O)NCc2ccc(F)cc2)cc1 (stereo unspecified)	-3.9	.	0.73	-37	-5.0	-8	-0.9
CCOc1ccc(-c2nc(N)nc(C)c2-c2ccc(Cl)cc2)c(O)c1	-3.2	-4%	0.67	-0.6	1.7	1	0.0
COc1ccc(NS(=O)(=O)c2ccc(C)c(C(=O)NCc3cccnc3)c2)cc1	-4.8	6%	0.69	0.1	0.4	4	-0.2
CCOC(=O)N1CCN(CCC(=O)Nc2cc(C)ccc2OC)CC1	0.6	5%	0.69	2.6	-7.7	2	0.1
O=C(c1ccccc1-n1cccn1)N1CCc2c([nH]c3ccccc23)C1c1ccccn1 (stereo unspecified)	-2.1	-7%	0.7	3.9	1.3	2	1.8
CN(CC(=O)Nc1ccc(F)c(F)c1F)C(=O)CC1OC(=O)c2ccccc21 (stereo unspecified)	2.1	-3%	0.67	1.4	1.0	2	0.1
NNC(=O)C1CC1(c1ccccc1)c1ccccc1 (stereo unspecified)	3.1	.	0.68	0.5	-0.1	0	-0.7

A draw from above in order of count of non-hydrogen atoms, descending.
SMILES	HNF4A DNA FP	Vif TR-FRET	E coli growth	UCH37 inh	LANA-H2B inh	Beta2AR agonist	A1 inh
O=C(c1ccccc1-n1cccn1)N1CCc2c([nH]c3ccccc23)C1c1ccccn1 (stereo unspecified)	-2.1	-7%	0.7	3.9	1.3	2	1.8
CCc1nc(SCC(=O)Nc2ccccc2)c2c(=O)n(C)c(=O)n(C)c2n1	2.5	-3%	0.76	2.6	-5.6	4	0.3
COc1ccccc1C(=O)Nc1nnc(-c2ccc(F)cc2)s1	4.7	-23%	0.72	1.7	2.0	-2	-2.2

The listing continues:
SMILES	HNF4A DNA FP	Vif TR-FRET	E coli growth	UCH37 inh	LANA-H2B inh	Beta2AR agonist	A1 inh
Cc1cccc(N=C2Sc3nc4c(C)c(C)ccc4cc3CN2CCN2CCOCC2)c1	0.7	3%	0.69	4.3	-5.5	25	-1.6
CSCCC(NS(=O)(=O)c1ccc(Cl)cc1)C(=O)O (stereo unspecified)	3.0	1%	0.69	0.0	3.9	6	0.8
CCN1c2cccc3cccc(c23)S1(=O)=O	3.2	12%	0.66	-118	2.2	3	-0.1
COc1ccc(NC(=O)CS(=O)CC(=O)NCc2cccc(C(F)(F)F)c2)cc1 (stereo unspecified)	4.2	4%	0.66	-1.8	0.8	-1	0.6
Clc1ccc(N=c2ssnc2Cl)nc1	6.1	0%	0.62	17	-2.2	14	0.3
N/C(=N\OC(=O)c1cccc2ccccc12)c1cccc([N+](=O)[O-])c1	10	0%	.	.	-2.9	10	0.1
Cc1csc(SCC(=O)Nc2ccccc2[N+](=O)[O-])n1	-1.7	-18%	0.69	4.9	6.9	9	-0.7
COCCCNC(=O)c1c(N)n(-c2ccccc2)c2nc3ccccc3nc12	-4.4	-2%	0.66	i	1.0	0	-0.2
COc1ccc(-c2[nH]c(-c3cccc(OC)c3)nc2SCC(=O)NCc2ccco2)cc1	-1.9	-4%	0.77	-9.9	-2.4	6	0.6
COc1ccc(NC(=O)CC2C(=O)N(C)C(=S)N2CCc2ccccc2F)cc1 (stereo unspecified)	5.8	5%	0.67	2.5	-2.5	7	-0.1
O=C(NC(=S)Nc1ccc(CN2CCCCC2)cc1)c1cccc(OCc2ccccc2)c1	2.7	-2%	0.69	-0.2	0.2	10	-1.4
Cc1ccc(Sc2ncnc(N)c2[N+](=O)[O-])cc1	-2.0	.	0.74	6.4	-1.8	1	0.4
CC(=O)c1cn(CCC(C)C)c(=O)[nH]c1=O	3.0	-5%	0.69	0.8	-1.9	-3	0.0
CCc1nnc(NC(=O)c2sc3nc4cc(C)ccc4cc3c2N)s1	32	9%	0.63	9.5	1.7	4	1.4
Cc1cc(Cl)c2oc(C(=O)NCCC3CCCCO3)c(C)c2c1 (stereo unspecified)	0.0	.	.	.	-0.3	19	-0.1
Cc1ccc(-n2ncc3c2CCCC3NC(=O)CCc2cnccn2)cc1C (stereo unspecified)	1.6	.	0.69	1.0	7.3	-3	0.5
CCN(CC(=O)Nc1ccccc1C(F)(F)F)C(=O)c1cc(-c2ccccc2)nn1-c1ccccc1	1.9	-8%	0.73	-2.0	1.2	-17	0.2
CC(=O)Nc1sc(NC(=O)c2ccco2)nc1-c1cccs1	2.8	.	0.68	3.7	3.5	-12	1.9
CN(Cc1c(C(=O)N/N=C/c2cccc(O)c2)nnn1-c1nonc1N)c1ccccc1	-1.4	.	.	.	-6.2	10	0.2
CCOC(=O)c1nnn(-c2nonc2N)c1CNc1ccccc1	-3.1	1%	0.66	3.3	-5.4	16	1.2
CCOC(=O)c1c(C)nc2cc(C)cc(C)n12	1.7	-1%	0.67	-2.0	2.9	0	-1.1
CCc1ccc(C(=O)CSc2nnc(C3CC3)n2C2CC2)cc1	0.9	-20%	0.67	1.0	-1.5	2	0.4
Cc1cccc(/C(N)=N/OC(=O)CCCN2C(=O)c3ccccc3C2=O)c1	3.6	16%	.	-2.3	-0.1	-8	0.2
C=CCn1cnc2c(c1=O)c1nc3ccccc3nc1n2/N=C/c1cc(OC)c(OC)c(OC)c1	0.8	26%	.	.	3.4	3	-0.1
COCC1CCN(C(=O)C2CCC(=O)N(Cc3cccc(C(F)(F)F)c3)C2)CC1 (stereo unspecified)	-1.2	.	0.68	-0.2	.	-2	.
Going on with the list.
SMILES	HNF4A DNA FP	Vif TR-FRET	E coli growth	UCH37 inh	LANA-H2B inh	Beta2AR agonist	A1 inh
Cc1ccc(-c2csc(NC(=O)CN3CCOCC3)n2)cc1C	-0.1	.	0.67	2.4	4.4	-2	-0.9
Cn1c(=O)c2[nH]c(CCCCc3nc4ccccc4[nH]3)nc2n(C)c1=O	2.3	-7%	0.68	3.5	.	-1	.
Cc1cc(C)c(S(=O)(=O)N2CCOC2CNC(=O)C(=O)NCCN2CCOCC2)c(C)c1 (stereo unspecified)	3.2	.	0.63	2.1	5.4	5	0.4
O=C(CSc1n[nH]c(-c2ccccc2)n1)Nc1ccc(N2CCOCC2)cc1	2.1	17%	0.65	-0.4	1.2	-2	-0.6
NC(=S)N=Nc1c(O)[nH]c2c(Cl)cc(Cl)cc12	3.1	-4%	0.62	5.7	.	10	.
O=C(Nc1ccc(Cl)c(Cl)c1)N(CCCN1CCOCC1)Cc1cccnc1	2.2	-1%	0.66	6.1	-3.8	1	0.1
O=C(Nc1ccncc1)c1ccccc1-c1ccccc1	-0.1	-7%	0.69	-2.3	-1.2	-3	0.0
Cc1ccc(/C=N/NC(=O)c2cc(-c3ccc(C)o3)[nH]n2)cc1	4.9	.	.	.	-4.3	5	-0.1
O=C(Nn1cnnc1)c1cc(Cl)cc(Cl)c1	-2.7	-3%	0.67	1.8	0.7	12	1.5
COc1ccc(NC(=O)N2CCCc3cc(C)ccc32)c(OC)c1	-0.4	3%	0.7	4.9	1.5	6	0.5
COc1ccc2c(c1)C(=O)N1[C@H]3c4cc(OC)ccc4OC[C@@H]3[C@H](c3ccccc3)[C@]1(C)C(=O)N2	-5.1	.	.	5.1	3.3	14	0.2
O=C(NCCN1CCOCC1)C1CC(=O)N(c2ccc(F)c(Cl)c2)C1 (stereo unspecified)	-2.4	2%	0.67	0.3	-1.9	5	-0.1
CCn1c(COc2cccc(C)c2)nnc1SCC(=O)Nc1cccc(C(=O)O)c1	4.7	5%	0.77	3.3	-3.1	-3	-1.1
Cc1csc(SCC(=O)Nc2nccs2)n1	1.8	-2%	0.69	0.6	3.6	-4	-0.4
COC(=O)c1ccc(OC(=O)CCN2C(=O)C3CCCCC3C2=O)cc1 (stereo unspecified)	-1.7	.	.	.	-11	21	?
O=C(NCCc1ccccc1)C(=O)NCC1CCCN1S(=O)(=O)c1ccccc1 (stereo unspecified)	-0.9	-2%	0.68	3.5	-5.1	3	-0.4
C=CCn1nnnc1SCC(=O)Nc1cccc(C(F)(F)F)c1	-3.6	.	0.7	2.0	19	2	0.6
O=C(COc1ccccc1)Nc1nnc(-c2ccccc2)o1	5.3	1%	0.64	3.3	14	10	-1.5
CCOc1ccc(N(CC(=O)N2CCN(c3ccccc3)CC2)S(=O)(=O)c2c(C)noc2C)cc1	-1.2	1%	0.76	5.7	-2.8	17	0.4
COc1cc(CN2CC(C)CC(C)C2)cc([N+](=O)[O-])c1O (stereo unspecified)	5.1	14%	0.68	6.2	8.4	0	-0.5
Cc1c(C(=O)Nc2ccc3c(c2)OCCO3)sc2nc(-c3ccccc3)cn12	-3.3	11%	0.72	0.6	-4.6	19	-0.2
